Compound activity as filed in PubChem BioAssay.
Yeast UUG start – alters start codon recognition fidelity in yeast; S. cerevisiae UUG-firefly luciferase reporter, luminescence/redox ratio; activity score, % at 18.7 µM; 350,000 compounds, 0.13% hits; AID 602363;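 active = replicate mean at a twofold rise or more, about +100% in these data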;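 note: firefly luciferase made from a UUG start codon reports start codon fidelity; reporter light over untreated wells divided by growth signal over untreated wells; some hits fall short of that in this replicate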
Env fusion inh – blocks HIV Env-driven cell-cell fusion; 360,000 compounds, 1.1% hits; HeLa-JRFL Env/CEM21 cell fusion, luciferase; inhibition, % at 12.3 µM;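 active = mean replicate inhibition score of at least 50 and every replicate individually at or above 50; inconclusive = only one of the two criteria met; inactive = mean below 50 and not all replicates reaching 50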;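 note: 0% = plate neutral controls and 100% = maraviroc near 300 nM; one replicate is shown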
MT1-MMP act inh – blocks activation of human MT1-MMP. P50281. HT1080 RFP-PRO-GFP cells, GFP/RFP ratio fluorescence, overnight; percent of plate control window, DMSO zero. 360,000 compounds, 0.061% hits. AID 651647. GFP/RFP ratio change, % at 20 µM;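 active = GFP/RFP ratio change of at least 30% with cell ATP level not reduced by more than half and red fluorescence within 50% of control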; note: strong numbers were not always called active
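Test system: HT1080 RFP-PRO-GFP cells; Benchmarks: DMSO and RFP-L50D-GFP cell wells; Timing: cells overnight before dosing, compound overnight, 37 °C, 5% CO2; Compound: one 20 µM compound dose with 1% DMSO; Read-out: GFP/RFP fluorescence ratio.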
eIF4H FP inh – inhibitors of RNA binding by human eIF4H | Q15056 | eIF4H fluorescence polarization binding assay | inhibition, % at 35 µM | 290,000 compounds, 0.94% hits | AID 2012;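 active = 50% or more with normal probe brightness, or confirmed in later tests; inconclusive = above 50% with abnormal brightness, or retests that disagree; inactive = below 50% or failed in later tests; about a fifth of its hits are not listed in these tables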;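 note: calls also rest on retests at 20 µM and on dose response follow-up; 0% = protein and probe with vehicle and 100% = probe without protein; strong numbers were not always called active; many hits fall short of the cut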
PABP polyA inh – blocks human PABP binding to poly(A) RNA; P11940; fluorescence polarization; inhibition, % at 35 µM; 290,000 compounds, 1% hits;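 active = 50% or more with normal probe brightness, or confirmed in later tests; inconclusive = above 50% with abnormal brightness, or retests that disagree; inactive = below 50% or failed in later tests; about a fifth of its hits are not listed in these tables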;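 note: calls also rest on retests at 20 µM and on dose response follow-up; controls were probe without protein and protein plus probe with vehicle; some compounds called inactive have numbers as strong as hits; many hits fall short of the cut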
Target sequence (P11940 whole entry, looked up): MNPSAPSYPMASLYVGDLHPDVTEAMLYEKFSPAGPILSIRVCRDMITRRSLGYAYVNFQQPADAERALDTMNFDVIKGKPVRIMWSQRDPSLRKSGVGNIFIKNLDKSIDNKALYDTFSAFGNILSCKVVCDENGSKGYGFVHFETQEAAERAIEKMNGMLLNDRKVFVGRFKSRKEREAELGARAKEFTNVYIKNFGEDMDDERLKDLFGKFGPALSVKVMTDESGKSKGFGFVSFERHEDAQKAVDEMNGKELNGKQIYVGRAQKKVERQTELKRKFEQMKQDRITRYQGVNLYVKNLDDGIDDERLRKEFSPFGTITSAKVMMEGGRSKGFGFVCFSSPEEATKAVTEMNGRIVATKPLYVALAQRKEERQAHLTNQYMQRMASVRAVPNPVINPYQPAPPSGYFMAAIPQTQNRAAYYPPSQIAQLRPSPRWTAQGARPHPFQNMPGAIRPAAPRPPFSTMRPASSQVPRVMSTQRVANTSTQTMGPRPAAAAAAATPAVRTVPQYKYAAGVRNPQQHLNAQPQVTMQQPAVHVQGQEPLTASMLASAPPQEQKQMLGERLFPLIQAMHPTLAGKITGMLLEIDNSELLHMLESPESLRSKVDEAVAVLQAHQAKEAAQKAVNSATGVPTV
Rce1 inhib – yeast Ras-converting enzyme inhibition; Q03530; yeast membranes, quenched prenylated peptide cleavage fluorescence; calls only; 290,000 compounds, 0.27% hits; AID 2563;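 active = fall in fluorescence gain of 50% or more versus controls, with final raw signal at or below 3038400; inconclusive = same 50% fall but final raw signal above 3038400; inactive = fall in fluorescence gain under 50%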;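 note: plate controls were neutral control wells for no effect and wells lacking membranes for full effect; tested at 10 µM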
Target sequence (Q03530 whole entry, looked up): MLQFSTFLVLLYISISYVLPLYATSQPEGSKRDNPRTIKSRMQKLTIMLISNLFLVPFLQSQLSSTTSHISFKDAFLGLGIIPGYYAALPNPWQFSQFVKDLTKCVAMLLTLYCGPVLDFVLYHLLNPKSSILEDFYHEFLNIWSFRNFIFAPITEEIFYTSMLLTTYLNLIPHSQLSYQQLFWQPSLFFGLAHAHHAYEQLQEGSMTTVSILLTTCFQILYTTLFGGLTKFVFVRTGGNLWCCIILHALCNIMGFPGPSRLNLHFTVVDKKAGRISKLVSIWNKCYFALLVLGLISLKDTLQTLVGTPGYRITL
CSC inhib – blocks cancer stem cells | cancer stem cell-like cells viability, luminescence | inhibition, % at 7.5 µM | 300,000 compounds, 1.1% hits | AID 2717;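 active = mean at 75% or more and at least half the replicates too; inconclusive = mean and replicates disagree; tested in HMLE shEcad cells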;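 note: 0% = median of negative and 100% = median of positive control wells; the first replicate is given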
eIF4H FP inh retest – also measured in eIF4H FP inh; calls as there; inhibition, %; compound at 20 µM; confirmation average;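 mean of two retest wells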
PABP polyA inh retest – further read-out of PABP polyA inh, marked with its call; inhibition, %; compound at 20 µM; confirmation repeats;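 mean of two retest wells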
MT1-MMP act inh RFP – recorded beside MT1-MMP act inh, whose call it bears; RFP signal change, %; measured here: RFP expression control read;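 0 = vehicle wells; hits needed this value within 50% of zero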
An asterisk follows results filed as active; i = inactive; u = inconclusive; x = not tested or not shown.

SMILES	Yeast UUG start	Env fusion inh	MT1-MMP act inh	MT1-MMP act inh RFP	eIF4H FP inh	PABP polyA inh	Rce1 inhib	CSC inhib	others
O=c1c2ccccc2cnn1Cc1n[nH]c(=S)n1-c1ccc(F)c(Cl)c1	-11	10	3	2	1	47	i	-15
Clc1ccc(-c2nnc3n2CCCCC3)cc1	-13	0	1	3	3	-4	i	-3
O=C(COC(=O)CNC(=O)C1CCCCC1)Nc1ccc2ccccc2c1	-20	-54	5	12	-2	5	i	-7
Cc1ccc(C(=O)COC(=O)c2cnccn2)cc1	-39	-83	-5	4	-11	4	x	x
CCOC(=O)c1cnc2ccc(Cl)cc2c1NCCN(C)C	-5	x	0	3	u	-12	i	-14
Cc1ccc(NC(=O)[C@@H](CC(C)C)NC(=O)[C@@H]2Cc3ccccc3CN2)cc1	-10	-7	1	1	76	2	i	-18	eIF4H FP inh retest=-2;PABP polyA inh retest=2
O=C(Nc1ccc(Cl)cc1)C(c1ccccc1)N(CCO)CCO (stereo unspecified)	-23	-63	1	-2	-4	-4	i	29
NC[C@@H]1O[C@H](O[C@H]2[C@@H](O)[C@H](O[C@@H]3[C@@H](O)[C@H](N)C[C@H](N)[C@H]3O[C@H]3O[C@H](CO)[C@@H](O)[C@H](O)[C@H]3N)O[C@@H]2CO)[C@H](N)[C@@H](O)[C@@H]1O	x	x	x	x	-4	-12	i	-13
COc1cc(Br)cc(Br)c1OCC(=O)N/N=C/c1c(C)n(C)n(-c2ccccc2)c1=O	-5	-18	-3	3	-3	1	i	-4
CC(=O)N1CCOc2ccc(S(=O)(=O)N3CCCCC3)cc21	0	-8	3	3	x	x	i	34
CN1CCN(c2ccccc2NC(=O)COc2ccc(C3CCCCC3)cc2)CC1	-14	13	3	-6	-2	-8	i	6
[O-]/[N+](=C\c1cccc(Br)c1)c1ccccc1	x	0	0	5	-1	3	i	-15
CC(C)(C)c1ccc(NC(=O)COC(=O)CCN2C(=O)c3cccc([N+](=O)[O-])c3C2=O)cc1	x	10	3	8	-7	-1	i	-9
Cc1ccc(/C(O)=C2\C(=O)C(=O)N(C)C2c2cccc([N+](=O)[O-])c2)cc1 (stereo unspecified)	-19	-3	5	-3	4	1	i	8
COc1cccc(C(C)(O)c2nc(-c3cccc(C(=O)O)c3)cs2)c1 (stereo unspecified)	-14	-7	-1	4	x	x	x	x
CN(c1ccc(C(=O)NC2CCCC2)cc1)S(=O)(=O)c1ccccc1	-17	-5	-2	-5	-6	-1	i	x
CCCCCC1CC(=O)N(Cc2ccccc2)C(=O)N1 (stereo unspecified)	7	x	-1	5	-4	-13	i	-5
CCCC12CN3CC(C)(CN(C1)C3c1ccco1)C2=O (stereo unspecified)	x	-3	2	3	35	2	i	-2
CCOC(=O)c1sc(NC(=O)Cc2ccc(F)cc2)nc1C	x	26	1	4	-3	-7	x	45
Cc1ccc(N2CN(CCc3ccccc3)CNC2=S)cc1	-18	4	-1	0	-4	-2	i	-7
O=C(N/N=C/c1cccs1)C(O)c1ccccc1 (stereo unspecified)	6	-13	2	4	7	-1	i	-12
Cc1cc(C)cc(N(CCC#N)C(=O)CSc2ncnc3sccc23)c1	-8	x	0	0	x	x	x	-13
Cc1cc(-c2nnc(CCC(=O)NC(C)c3ccccc3Cl)o2)no1 (stereo unspecified)	x	-5	1	5	11	-8	i	-1
CC(C)(C)c1ccc(C(=O)c2c[nH]c(C(=O)NCCCn3ccnc3)c2)cc1	-1	24	9	-7	-3	-7	i	44
COc1ccccc1C(=O)N/C(=C\c1ccc(Br)cc1)C(=O)NCC(=O)O	x	20	-2	4	-8	-8	i	3
CCCCOC(=O)C1=C(C)Nc2ncnn2C1c1ccc(OCC)c(OC)c1 (stereo unspecified)	-12	-202	4	1	13	12	i	-5
O=C(CSc1ncccn1)N1CCN(C(=O)CSc2ncccn2)CC1	x	2	7	9	-2	-8	i	-9
O=C(NNC(=O)c1cccc(C(F)(F)F)c1)c1ccncc1	-12	3	2	11	-7	9	i	-4
N#CC1=C(N)Oc2n[nH]c(CSc3ccccc3)c2C12C(=O)Nc1ccccc12 (stereo unspecified)	-20	x	4	5	3	13	i	-1
COc1ccccc1CNC(=O)CCN1C(=O)COc2ccccc21	x	x	3	2	1	6	i	2

Ordered by molar mass (highest first): part of the list above.
SMILES	Yeast UUG start	Env fusion inh	MT1-MMP act inh	MT1-MMP act inh RFP	eIF4H FP inh	PABP polyA inh	Rce1 inhib	CSC inhib	others
Cc1cc(-c2nnc(CCC(=O)NC(C)c3ccccc3Cl)o2)no1 (stereo unspecified)	x	-5	1	5	11	-8	i	-1
Cc1ccc(N2CN(CCc3ccccc3)CNC2=S)cc1	-18	4	-1	0	-4	-2	i	-7
CCCCCC1CC(=O)N(Cc2ccccc2)C(=O)N1 (stereo unspecified)	7	x	-1	5	-4	-13	i	-5

The list goes on.
SMILES	Yeast UUG start	Env fusion inh	MT1-MMP act inh	MT1-MMP act inh RFP	eIF4H FP inh	PABP polyA inh	Rce1 inhib	CSC inhib	others
CN1CCN(C(=O)c2ccc3c(=O)n(Cc4ccc(Cl)cc4)c(=S)[nH]c3c2)CC1	-27	8	7	-5	0	-6	i	33
O=C(CCC1CCN(C(=O)C2CC=CCC2)CC1)Nc1ccccc1 (stereo unspecified)	-6	29	3	-6	x	x	x	x
Cc1nn(C)cc1C(=O)/C=C/c1ccc([N+](=O)[O-])cc1	x	4	-6	-7	3	7	x	25
COc1ccc(-c2ccc3c(c2)S(=O)(=O)c2cccc(C(=O)NC4CCCCC4)c2C3=O)cc1OC	-3	x	-4	4	x	x	x	14
NC(=O)c1c(NC(=O)c2ccccc2C(=O)O)sc2c1CCCC2	-2	2	-1	-1	-3	13	i	-7
CC(Sc1nc2ccccc2c(=O)n1CC1CCCO1)C(=O)N(C)Cc1ccccc1 (stereo unspecified)	6	19	-1	2	x	x	i	4
CCC(C)C(NC(=O)OC(C)(C)C)C(=O)NC(C(=O)N1CCCC1C(N)=O)C(C)CC (stereo unspecified)	-5	x	-2	-1	1	-2	i	-8
O=C(CSC(=S)N1CCCC1)N/N=C/c1c(O)[nH]c(=S)[nH]c1=O	14	x	-9	3	x	x	x	-3
CCOC(=O)c1c(C)nc2c(c1-c1ccccc1)C(=O)CC(C)(C)C2	-30	x	5	5	-3	-8	i	-2
O=C(COc1ccc([N+](=O)[O-])cc1)Nc1nnc(-c2cccnc2)s1	-20	-22	2	-1	81	17	i	-16	eIF4H FP inh retest=50;PABP polyA inh retest=29
CCOC(=O)c1cnc(SCC(=O)Nc2cc(C(F)(F)F)ccc2N2CCOCC2)nc1N	-22	x	-1	0	8	3	i	0
COc1ccc(CN(C)C(=S)Nc2ccc(Cl)cc2)cc1	x	9	2	-2	-12	-9	i	-8
COc1ccc2oc(C(=O)OCC(=O)N3CCN(c4ccccc4)CC3)c(C)c2c1	-15	12	1	-1	x	x	i	-15
CC(=O)C(Cc1ccccc1)NC(=O)COC(=O)c1cccc(C)c1[N+](=O)[O-] (stereo unspecified)	6	x	0	3	x	x	x	10
O=C(Oc1ccccc1)c1ccccc1OS(=O)(=O)c1ccccc1	x	1	-2	-2	11	4	i	6
COc1ccccc1NS(=O)(=O)c1cccc(C(=O)N/N=C/c2ccc(N3CCOCC3)cc2)c1	-14	-3	-1	0	-2	-1	i	5
COC(=O)c1ccc(Cl)c(NC(=O)CN2CCN(Cc3ccccc3)CC2)c1	-9	x	1	-2	-2	4	i	-2
Cc1cc(NC(=O)C2(c3ccccc3)CCCC2)no1	-19	x	-5	-1	-4	-7	i	-12
CC(C)CN(C(=O)c1ccco1)c1nc2ccccc2s1	x	-15	-2	0	-7	-3	i	x
CCN(CC(=O)Nc1ccc(Br)cc1)C(=O)Cc1cccc(F)c1	0	10	2	2	-4	1	i	0
Cc1cc(C)c2sc(NC(=O)c3ccc([N+](=O)[O-])o3)nc2c1	11	-57	4	-8	10	9	i	92*
Cc1c(NC(=S)NC(=O)C2CCCCC2)c(=O)n(-c2ccccc2)n1C	-18	-3	-1	2	2	-7	i	x
CCCNC(=O)C1(C)CCCN(C(=O)c2ccc3sccc3c2)C1 (stereo unspecified)	-4	19	7	5	x	x	x	x
CCOC(=O)Cc1csc(NC(=O)CCS(=O)(=O)Cc2ccccc2)n1	-4	x	1	-4	-10	6	i	7
CNC(=O)c1sc(-c2cccnc2)nc1C	-22	-97	-5	3	5	3	i	-15
CCOC(=O)C1CCCN(c2nc3ccccc3nc2NS(=O)(=O)c2ccc(C)cc2)C1 (stereo unspecified)	3	-18	0	0	x	x	x	0
CCOc1ccc(C(CC(=O)O)NC(=O)COc2ccccc2OC)cc1OC (stereo unspecified)	-12	-13	0	5	-8	-12	i	1
CCCCN(C)S(=O)(=O)c1ccc(C(=O)N=c2sc3cc(NC(C)=O)ccc3n2C)cc1	-12	-124	6	0	3	-4	i	2
CCOc1ccc(NC(=O)C2CCCN(S(=O)(=O)c3ccc4[nH]c(=O)ccc4c3)C2)cc1 (stereo unspecified)	-8	-2	1	1	0	10	i	-1
Cc1cc(-c2nn(-c3ccccc3)cc2/C=C2\SC(N)=NC2=O)ccc1OC(C)C	-11	x	-6	-13	-15	-5	i	-2
NC(CC(=O)NC(c1ccccc1)(c1ccccc1)c1ccccc1)C(=O)O (stereo unspecified)	x	-9	2	8	-6	4	i	-8
CCCN(CC(=O)Nc1ccccc1C)C(=O)c1cc(C)oc1C	-6	3	-1	1	x	x	x	x
O=C(NCCOC(=O)c1ccc(S(=O)(=O)N2CCOCC2)cc1)c1cccnc1	-13	x	0	4	-7	4	i	-3
Cc1[nH]n(-c2ccccc2)c(=O)c1/C=N/N1C(=O)c2cccc3cccc(c23)C1=O	-28	-4	-2	1	16	4	i	5
COc1ccc(/C=C/c2nc(C#N)c(NCCN(C)C)o2)cc1OC	-3	-5	-2	0	0	-1	x	-13
O=C(Nc1ccccc1[N+](=O)[O-])C1C(c2ccccc2)=C1c1ccccc1	1	x	-7	-4	-7	0	i	-2
CCc1ccccc1NC(=O)CN1CCN(C(=O)CN2C(=O)NC3(CCCC3)C2=O)CC1	-7	2	2	-2	x	x	x	x
Cc1cccnc1NC(=O)Cn1nc(-c2ccccc2)oc1=S	x	x	3	1	1	8	i	16
O=c1[nH]c(=S)[nH]c2c1C(c1ccc(F)cc1)OC(C1CCCCC1)C2 (stereo unspecified)	-16	-3	1	-2	x	x	x	x
CN(C)CCC(=O)C(Cc1ccccc1)c1ccccc1 (stereo unspecified)	-7	-4	5	6	x	x	i	64
C/C(CC(=O)NCc1ccco1)=N\NC(=O)COc1ccc(C)cc1	-8	x	3	5	8	5	i	-6
CCOC(=O)C1C(CC)NC(=S)NC1(C)O (stereo unspecified)	-17	-13	1	4	-4	u	i	x
CC(=O)NC12CC3CC(C1)CC(C(=O)OCC(=O)c1ccc4c(c1)OCCO4)(C3)C2	-70	x	-5	0	-2	2	i	-8
Cc1occc1C(=O)Nc1cccc(/C=C/C(=O)O)c1	-1	-9	-3	0	x	x	i	-7
CCCCN(C(=O)CNC(=O)c1cccs1)C(C(=O)NC1CCCCC1)c1cccnc1 (stereo unspecified)	-9	3	8	2	-2	4	i	-4
O=C(C(c1ccccc1)c1ccccc1)N1CCN(Cc2ccccn2)CC1	-18	x	-2	5	-14	8	i	-11
Cc1ccc(CNC(=O)C(CCC(N)=O)NC(=O)OCc2ccccc2)cc1 (stereo unspecified)	x	-10	-1	5	-9	-5	i	-8
